Screening data: PubChem, National Center for Advancing Translational Sciences (NCATS)
HPGD inh – HPGD (human) dehydrogenase inhibition; purified HPGD, NADH fluorescence kinetic, PGE2 substrate; Potency, µM, for inactives: top-dose activity change, negative = inhibition, usual class: inhibitors; hit rate 4.3% among 150,000; active = well fitted inhibition curve with a large enough effect (not every such curve was filed as active); inconclusive = small, poorly fitted or top-dose-only effect, or another doubt; inactive = no such curve, though single readings can be large or run the other way;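 further: top concentration of the series not given in the record; plate controls included wells without enzyme; inactives centre near -10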
Target sequence (P15428 whole entry, looked up): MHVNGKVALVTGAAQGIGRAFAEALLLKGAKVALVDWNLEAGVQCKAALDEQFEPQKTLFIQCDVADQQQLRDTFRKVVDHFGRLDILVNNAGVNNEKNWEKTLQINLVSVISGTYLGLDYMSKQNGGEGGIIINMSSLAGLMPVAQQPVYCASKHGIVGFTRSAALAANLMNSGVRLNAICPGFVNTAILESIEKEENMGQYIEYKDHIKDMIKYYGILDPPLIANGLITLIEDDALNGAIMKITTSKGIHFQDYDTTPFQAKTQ
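NADH formation kinetics: reaction with 30 uM PGE2 and 1 mM NAD+ (final), 20 nM enzyme, Tris-HCl pH 8 with Tween 20, after 15 min compound preincubation at room temperature. Fluorescence change, last versus first of five reads.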
Numbers without * were called inactive; ? = inconclusive; & = joins results of further samples. On the % scale 0 is the no-effect control and ±100 the full control effect; potency means the concentration at half of the fitted maximal effect. These rows are one share of the data; rates above refer to the full screens.

The first three records as a preview:
compound	HPGD inh
O=C(NCC1CCCO1)c1cnn2c1NC(c1ccccc1)CC2C(F)(F)F (stereo not given)	25.1µM*
Cc1nn(C)c(Oc2cccc(Cl)c2)c1C=O	-8.6%
Cc1ccsc1/C=C1\CCc2ccccc2C1=O	-27.2%

Results, from the start:
compound	HPGD inh
O=C(NCC1CCCO1)c1cnn2c1NC(c1ccccc1)CC2C(F)(F)F (stereo not given)	25.1µM*
Cc1nn(C)c(Oc2cccc(Cl)c2)c1C=O	-8.6%
Cc1ccsc1/C=C1\CCc2ccccc2C1=O	-27.2%
c1ccc(-n2cccc2CNC2CCCCC2)cc1	5.7%
O=S(=O)(c1ccc(Cl)s1)N1CCN(Cc2ccccc2)CC1	-8.0%
Cc1ccc(/C=C2\CCC3=C2OC(N)=C(C#N)C3c2ccc(C)cc2)cc1 (stereo not given)	-23.7%
CCOC(=O)c1c(C)oc2c1c(C(c1cccnc1)N1CCCCC1)c(O)c1ccccc12 (stereo not given)	-22.4%
NC(N)=NCCCC(NC(=O)C(N)Cc1ccc(O)cc1)C(=O)O (stereo not given)	-16.6%
NC(=S)Nc1cc2ccccc2c2ccccc12	-8.0%
CC(C)C(=O)Nc1cccc(NC(=S)NC(=O)c2ccc([N+](=O)[O-])cc2)c1	-6.3%
C/C(=C\C(=O)c1ccccc1)NNc1nc2ccccc2s1	-15.2%
Cc1ccccc1Cn1cc(NC(=O)c2nc3ncccn3n2)cn1	?

compound	HPGD inh
O=S(=O)(c1ccc(F)c(F)c1)N1CCN(Cc2ccc3c(c2)OCO3)CC1	-12.2%
CCN(CC)S(=O)(=O)c1ccc(N2CCOCC2)c(NC(=O)Cc2ccccc2)c1	-9.4%
CC1(C)NC(=O)N(CC(O)CN(Cc2ccccc2)Cc2ccccc2)C1=O (stereo not given)	-10.4%
Cc1ccc(N2C(=O)N(Cc3ccccc3C)c3ccccc3S2(=O)=O)cc1	?
O=S(=O)(c1ccc(-c2csc(-c3cccnc3)n2)cc1)N1CCCC1	?
O=P(O)(O)c1ccccc1OCc1ccccc1	-5.0%
CC(C)CCOC(=O)C1C2C=CC3(CN(Cc4cccs4)C(=O)C13)O2 (stereo not given)	-7.7%
CC1(C)CC(=O)C(C=NCCN2CCN(C(=S)Nc3ccc(F)cc3)CC2)=C(O)C1	-7.8%
CC(Cc1cccs1)NC(=O)Nc1ccc(Cl)cc1 (stereo not given)	-3.8%
Cc1sc(NC(=O)c2ccccc2)c(C(=O)NCCN(C)C)c1C	-10.2%
CCN1CCCC1CNC(=O)c1c(O)c2c([nH]c1=O)CCCC2 (stereo not given)	-11.6%
CCCSc1nnc2n(Cc3ccccc3)c(=O)c3c4c(sc3n12)CCC4	-10.1%

compound	HPGD inh
Cc1ccc(-c2nnc(CSc3nnc4c5c(C)c(C)sc5nc(C(C)C)n34)o2)cc1	?
Cc1cccc(C(=O)O/N=C(\N)c2ccc(Br)cc2)c1	-8.3%
O=C(CN1CCCC1)N1CCCc2c1c(=O)oc1ccc(OCc3ccccc3)cc21	?
O=C(NCCN1CCCC1)C1CCN(S(=O)(=O)N2CCC3(CC2)OCCO3)CC1	-3.5%
COc1ccc(-c2cc(C(F)F)n3ncc(C(=O)N4CCCCC4)c3n2)cc1	?
COc1cc(NC(=O)COC(=O)c2ccc(C)c(S(=O)(=O)N3CCCCC3)c2)c(C)cc1[N+](=O)[O-]	-14.2%
Cc1ccccc1C(=O)Nc1nnc(-c2ccc(F)cc2)o1	-19.1%
CCn1c(=O)n(CC)c2cc(S(=O)(=O)N3CCc4ccccc43)ccc21	-5.4%
O=C(CSc1nnc(-c2ccco2)n1Cc1ccccc1)OC1CCCCC1	25.1µM*
Cc1nnc(NC(=O)CCC(=O)NCc2cccs2)s1	-3.8%
CC(C)NC(=O)CSc1nc2ccccc2n1-c1ccccc1	-9.5%
CCCCCCCCN1C(=O)N(C)C(N(O)C(=O)NC)C1(C)C (stereo not given)	-7.6%

compound	HPGD inh
Cc1c(C(=O)NC2CCCc3ccccc32)oc2ccc(S(=O)(=O)N3CCCCC3)cc12 (stereo not given)	-1.2%
Cc1ccc(C(=O)COC(=O)CNC(=O)COc2ccccc2C)cc1C	-9.6%
COC(=O)Cn1c2ccc(C)cc2c2nc(C)sc21	-15.2%
CSc1nc(-c2ccccc2)nc(N2CCN(C)CC2)c1C(C)=O	-21.2%
COc1cc(=O)n2c(n1)SCCC2	-5.3%
COc1ccc(/C=C(\C#N)C(N)=O)cc1OC	-4.2%
CCOc1ccc(NS(=O)(=O)c2ccc(NS(C)(=O)=O)cc2)cc1	-7.1%
O=C(O)CN(CCO)CCN(CC(=O)O)CC(=O)O	-4.2%&1.8%
CC(=O)Oc1c(C)c(=O)n(C)c2ccccc12	-10.8%
C=CCNC(=S)NNC(=O)c1ccc(OC(C)C)cc1	-16.3%
C=CCc1c(C)nc(C)nc1N/N=C/c1ccccc1O	-19.5%
O=S1(=O)N=C(N/N=C/C=C/c2ccccc2)c2ccccc21	-11.6%

compound	HPGD inh
Cc1cccc(-c2nnc(SCC#N)n2-c2ccccc2)c1	-2.4%
CC(C)=C1SC(N2CCN(c3cccc(C(F)(F)F)c3)CC2)=NC1=O	-16.5%
O=C(Nc1nnc(C2CCCCC2)s1)c1cccs1	-2.9%
N#C/C(=C\c1ccc(O)c(O)c1)C(=O)NCCCCc1ccccc1	8.91µM*
CCCCn1nnnc1NCc1cc(OC)c(OC)cc1OC	-12.1%
COc1cccc(OCc2nc3ccccc3c(=O)n2N)c1	-1.2%
CCn1ncc(/C=N/NS(=O)(=O)c2ccc(Cl)cc2)c1C	-3.5%
COc1cccc(C(=O)Nc2ccc(NC(C)=O)cc2)c1	-4.7%
CC(=O)Cc1nsc(NC(=O)c2c(-c3ccccc3Cl)noc2C)n1	-3.3%
Cc1ccccc1C(=O)c1ccc2c(c1)n(C)c(=O)n2C	-16.0%
Cc1ccc(NC(=O)COc2cccnc2[N+](=O)[O-])cc1S(=O)(=O)N1CCCCC1	-9.9%
Cc1nc(CCN2C(=O)c3ccccc3C2=O)n[nH]1	-4.0%

compound	HPGD inh
Cc1ccnc(NC(=O)CN(C)S(=O)(=O)c2cccc3nsnc23)c1	-14.7%
COc1cccc(C(c2nnnn2Cc2ccccc2)N2CCN(C(=O)c3ccco3)CC2)c1OC (stereo not given)	-4.3%
CC1CCCCN1C(=S)Nc1ccc2nc3n(c(=O)c2c1)CCCCC3 (stereo not given)	-4.0%
COc1ccc(C(C)=O)c(OC(=O)c2ccco2)c1	?
CN1C(CC(=O)c2ccccc2)CCCC1CC(O)c1ccccc1 (stereo not given)	-10.0%&-8.3%
COc1ccc(/C=C/C(=O)NCCCc2ccccc2)cc1OC	-28.3%
O=C(NCCC(=O)N1CCNC1=O)OCc1ccccc1	-12.6%
COc1ccc(-c2cnn(-c3ccccc3)c2N)cc1OC	-22.6%
CCOC(=O)C1=C(C)NC(=O)NC1c1ccc(Br)o1 (stereo not given)	-14.7%
CCCCN1C(=O)C(NC(=O)C2CC2)(C(F)(F)F)C2=C1CC(C)(C)CC2=O (stereo not given)	-0.3%
S=C1NC(c2ccccc2)=NCN1c1ccc(Br)cc1	-12.5%
CC(=O)C1=C(C)Nc2ncnn2C1c1ccc(Cl)cc1Cl (stereo not given)	-26.5%

compound	HPGD inh
Cc1nnc(SC(C)C(=O)Nc2ccc(S(=O)(=O)N3CCCCC3)cc2)s1 (stereo not given)	4.6%
CC(C)[C@H](N)C(=O)OCCOCn1cnc2c(=O)[nH]c(N)nc21	-6.7%
Cc1cc(NC(=O)CN2CCCC2c2nc3ccccc3s2)no1 (stereo not given)	-5.8%
O=c1[nH]c(CSc2nc3ccccc3[nH]2)nc2c1cnn2-c1ccccc1	-10.4%
COC(=O)/C(=C\Nc1ccc(OC)cc1)NC(=O)c1ccc(Cl)cc1Cl	-9.9%
Cn1cccc1C(=O)Nc1nc(-c2ccccn2)cs1	28.2µM*
CCN(CC)C(=O)c1cn(C)c(=O)c2cc(OC)c(OC)cc12	-23.6%
O=C(CCN1C(=O)COc2ccccc21)NCCN1CCc2ccccc2C1	-2.9%
NC(=O)c1cc(Cc2ccccc2)sc1NC(=O)c1ccco1	28.2µM*
Cc1ccc(-c2nnc(SCC#CCOC(=O)c3cccs3)o2)cc1	-14.6%
CNC(=O)/C(C#N)=C\c1ccc(CNS(=O)(=O)c2ccccc2)o1	-17.8%
Cc1ccccc1NC(=O)COC(=O)CN1C(=O)NC(C)(C)C1=O	-4.2%

compound	HPGD inh
CCCNC(=O)C1CCN(c2nc(C)cc(C)n2)CC1	?
COc1ccc(NC(=S)Nc2ccccc2)cc1	-1.2%
COc1ccccc1OC(=O)CCN1c2ccccc2Sc2ccccc21	-18.4%
O=C(c1ccccc1NS(=O)(=O)c1cccs1)N1CCCC1	-5.8%
CCOC(=O)N1CCC2(CC1)C(C#N)=C(N)Oc1n[nH]c(CSc3ccc(C)cc3)c12	-7.7%
COc1ccccc1C(=O)NCCCN1CCCC1=O	-12.8%
Cc1cc(C)c(-c2cc(NC(=O)CSc3n[nH]c(N)n3)n(-c3ccccc3)n2)cc1C	-17.1%
O=C1OC(=O)c2ccccc21	-4.7%
COc1cc(NC(=O)c2ccco2)ccc1NC(=O)C(C)C	-7.4%
O=S(=O)(NC1CCCCC1Oc1ccccc1)c1ccc(Cl)cc1 (stereo not given)	-1.6%
C=CCn1cnc2c(c1=O)c1nc3ccccc3nc1n2/N=C/c1cccc(OC)c1OC	?
O=C(c1oc(=O)c2ccccc2c1-c1ccccc1)N1CCN(C2CCCCC2)CC1	2.2%

compound	HPGD inh
O=C(CCCn1c(=O)c2sccc2n(CC(=O)OCc2ccccc2)c1=O)NCc1ccco1	-12.4%
Cc1cc(C(=O)CSc2nnc(-c3ccc(F)cc3)o2)c(C)n1CC1CCCO1 (stereo not given)	-19.4%
CCOC(=O)CC1=C(C(=O)OCC)C(c2ccc(C)o2)C(C#N)=C(N)O1 (stereo not given)	-11.9%
CC(C)=C[C@H]1[C@@H](C(=O)Oc2ccccc2C(C)C)C1(C)C	-10.8%
CC1CN(C(=O)c2ccccc2NS(=O)(=O)c2cccc([N+](=O)[O-])c2)CC(C)O1 (stereo not given)	-11.8%
Cc1noc(C(=O)N2CC3(C)CC2CC(C)(C)C3)c1Cl (stereo not given)	-8.4%
O=S(=O)(c1cccs1)N1CCN(CC(O)COC2CCCc3ccccc32)CC1 (stereo not given)	-15.9%
Cc1cccc(Oc2coc3cc(OC(=O)c4cccs4)ccc3c2=O)c1	-12.4%
COc1ccccc1-c1c(C#N)c(SCC(=O)N2CCCC2)nc(C)c1C(N)=O	-12.7%
CC[C@H](C)C(=O)O[C@H]1CCC=C2C=C[C@H](C)[C@H](CC[C@@H]3C[C@H](O)CC(=O)O3)C21 (stereo not given in full)	-7.7%
COc1ccc(Cc2nnc(NC(=O)Cn3cnc4c3c(=O)n(C)c(=O)n4C)s2)cc1OC	14.1µM*
CC(C(=O)N1c2ccccc2CCc2ccccc21)n1nnc(-c2ccc(N(C)C)cc2)n1 (stereo not given)	?

compound	HPGD inh
Cn1c(C(=O)Nc2ccc3c(c2)OCCO3)cc2sccc21	-13.8%
COC(=O)[C@@H]1[C@H](CCc2ccccc2)NC(=O)N(Cc2ccccc2)[C@@H]1C	-7.5%
COc1ccc(OC)c(C(=O)CSc2nnc(Cc3cccs3)n2C)c1	-20.9%
CCNC(=O)c1cc2ccccc2o1	-4.4%
O=C(CCC(=O)c1ccc(Oc2ccccc2)cc1)Nc1ccc(Cl)cc1Cl	4.1%
COc1cccc(/C=N/NC(=O)C[n+]2ccccc2)c1O	-0.4%
COc1cccc(C(C(=O)Nc2ccc(F)cc2)N(C(=O)Cn2nnc3ccccc32)C2CC2)c1 (stereo not given)	-11.3%
COc1ccc(CC(=O)Nc2ccc(-c3cn4cccc(C)c4n3)cc2)cc1OC	?
CCCN1Cc2cccc(C(=O)Nc3ccc(C)cc3)c2C1=O	-13.0%
O=C(CCC1CCCC1)NC1CCCCC1	15.8µM*
O=C(Cn1nnc(-c2ccccc2)n1)N/N=C/c1cccc([N+](=O)[O-])c1	-14.4%
COc1ccccc1N1C(=O)CCC1(C#N)c1ccc(Br)cc1 (stereo not given)	-2.3%

compound	HPGD inh
COc1ccc(-c2nc3c([nH]2)c(=O)n(C)c(=O)n3C)c(OC)c1	-21.1%
O=S(=O)(c1cccs1)N1CN(Cc2ccc(F)cc2)c2nc3ccccc3nc21	-18.9%
CCCC(=O)c1cc2c(cc1NC(=O)c1cccs1)OCCO2	?
Nc1nonc1-c1noc(CCCCCN2C(=O)c3ccccc3C2=O)n1	-18.4%
CS(=O)(=O)c1ccccc1COC(=O)Nc1ccc(Cl)cc1	-1.0%
COC(=O)c1sc2ccccc2c1NC(=O)c1coc2ccccc2c1=O	-2.0%
COC(=O)C1=C(C)N(Cc2ccc(OC)cc2)C(=O)C1	-19.6%
COC(=O)c1c(NC(=O)c2cccs2)sc2c1CCC(C)C2 (stereo not given)	?
O=C(CS(=O)(=O)c1ccccc1)Nc1nc(-c2ccccc2)cs1	-14.6%
CCOc1ccccc1OCCCCCc1c(C)n[nH]c1C	-5.8%
O=C(CN1CCN(S(=O)(=O)c2ccc(Br)cc2)CC1)N/N=C/c1cccs1	-1.7%
CN(C)S(=O)(=O)c1cccc(NC(=O)COC(=O)CCSc2ccc(Cl)cc2)c1	-7.5%
